# Source: PubChem
# Mtb hypoxia inh: PubChem AID 1159583. M. tuberculosis hypoxia-regulated fluorescent reporter, fluorescence. fluorescence inhibition, % (concentration not given with the values). 300,000 compounds, 0.1% hits;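 active = 35 to 45% if threefold the growth effect, above 45% if 1.5-fold the growth effect; inactive = the rest, general growth blockers included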;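 note: wells of about 50 µL received 100 nL stock; 0% = vehicle wells and 100% = reference inhibitor wells; whole bacteria with a GFP reporter of the hypoxia response; strong numbers were not always called active; many hits fall short of the cut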
# Sa RN4220 lethal: growth inhibition of S. aureus RN4220, primary screen, OD600; 16 h; inhibition, % (test concentration not listed); 330,000 compounds, 0.33% hits;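 active = z-score of -3 or lower and OD600 up to 0.18 on both plates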;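 note: plate controls were untreated cells for no effect and reference antibiotic for full effect; stock transfer was 100 nL into about 80 µL; one replicate is shown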
# BJeLR lethal: MLPCN primary cell-based screen for lethality selective to Ras in HRASV12 cells; BJeLR (HRASV12) viability, CellTiter-Glo ATP luminescence, 48 h; reference of the scale not given here; inhibition, % (concentration not given with the values); 300,000 compounds, 0.17% hits;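 active = replicate mean above 50%; inconclusive = above 50% but judged a plate artefact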;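 note: 50 nL library stock added to about 25 µL; numbers are from one replicate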
# Autofluor counter: flagged as autofluorescent in microsphere protease counterscreen; AID 624483; fluorescence intensity (test concentration not listed); compound autofluorescence counterscreen, microsphere flow cytometry; active compounds read high; 360,000 compounds, 3.1% hits;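 active = at least 3 SD above the mean of all compounds, about 16000 in these data; inconclusive = too few beads counted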;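 note: 100 nL of 1 mM stock went into each well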
# PrP 5UTR inh: inhibition of PrP 5' UTR reporter expression; cell-based PrP 5' UTR mRNA reporter, plate reader; 340,000 compounds, 0.35% hits; inhibition, % (test concentration not listed);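 active = every replicate at 50% or more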;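 note: 0 = median of the neutral control wells; tested in H4 reporter cells; numbers are from one replicate; inactives centre near -14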
# ugtP null kill: growth inhibition of ugtP-null S. aureus, primary screen, RN4220 ugtP deletion, OD600. 16 h; some inactives read as strong as hits. growth inhibition, % (no concentration beside the values). 330,000 compounds, 0.54% hits. AID 1259309, 2017;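 active = z-score under -3 and OD600 up to 0.15 on both plates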;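 note: plate controls were untreated wells for no effect and antibiotic for full effect; wells of about 80 µL received 100 nL stock; the first replicate is given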
# Mtb hypoxia inh growth: second read-out of Mtb hypoxia inh, no call of its own (marks repeat the call); growth inhibition, %; measured here: M. tuberculosis growth (absorbance);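 0% = vehicle and 100% = reference antibiotic; read after six days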
# Active calls of the source: *; u = inconclusive; x = no result given; & = joins results of further samples.
SMILES,Mtb hypoxia inh,Mtb hypoxia inh growth,Sa RN4220 lethal,BJeLR lethal,Autofluor counter,PrP 5UTR inh,ugtP null kill
CCOC(=O)c1cc2c(ccn2-c2ccc(F)cc2)n1CC(=O)NC(C)(C)C,6,4,-8.2,-1,x,x,2
Cc1ccc(NC(=S)NC(=O)c2cccs2)cc1F,16,18,13,x,3764,-15,35
O=C(CC1CC=CCCCC(=O)OCC2CCCN2C1=O)NCCO (stereo not drawn),13&10,2&2,5.3&4.3,x,x,x,2&-5
CCCCCCCCOC(=O)c1c(CSC(=N)N)n(C)c2cc(Br)c(OC(C)=O)cc12,x,x,100*,10,6437,x,101*
CCOC(=O)C1CCN(C(=O)c2ccccc2NS(=O)(=O)c2ccccc2)CC1,12,10,5.0,5,5769,-1,11
Cc1ccc(CNc2ccc(N3CCOCC3)c(C(=O)O)c2)s1,4,10,-0.1,-9,x,-5,-1
Cc1cc(=O)c2c(C)ccc(C)c2[nH]1,x,x,x,4,4050,-13,x
O=C(COc1ccccc1[N+](=O)[O-])NNC(=O)Nc1cccc2ccccc12,7,2,1.7,0,2273,-10,0
COc1cccc(CC(=O)N2CCN(S(=O)(=O)c3ccc(Br)cc3)CC2)c1,-6,4,0.6,4,u,-3,0
NS(=O)(=O)c1ccc(NS(=O)(=O)c2ccc3c(c2)OCCO3)cc1,-6,3,1.4,-1,3848,-17,1
CC(C)CC(=O)Nc1cccc(-c2csc(-c3ccccc3)n2)c1,x,x,-15,1,2558,-32,-9
COc1cccc(NC(=O)CCc2nnc3ccc(N4CCC(C)CC4)nn23)c1,10,15,3.2,1,5603,-10,1
CCCCNS(=O)(=O)C1CCS(=O)(=O)C1 (stereo not drawn),3,-1,-12,-6,2837,-14,-3
Cn1nnnc1SCC(=O)Nc1ccccc1C(=O)NC1CC1,3,12,2.2,-6,3524,-14,-1
Cc1ccc(CN(Cc2cc3cc(C)ccc3[nH]c2=O)C(=O)N2CCOCC2)cc1,-2,-4,3.0,2,9666,-11,6

# A section from the list above, as a working copy:
SMILES,Mtb hypoxia inh,Mtb hypoxia inh growth,Sa RN4220 lethal,BJeLR lethal,Autofluor counter,PrP 5UTR inh,ugtP null kill
Cn1nnnc1SCC(=O)Nc1ccccc1C(=O)NC1CC1,3,12,2.2,-6,3524,-14,-1
Cc1ccc(CN(Cc2cc3cc(C)ccc3[nH]c2=O)C(=O)N2CCOCC2)cc1,-2,-4,3.0,2,9666,-11,6

# Other structures.
SMILES,Mtb hypoxia inh,Mtb hypoxia inh growth,Sa RN4220 lethal,BJeLR lethal,Autofluor counter,PrP 5UTR inh,ugtP null kill
C=CCn1c(-c2c(C)nc3cc(C)ccn23)n[nH]c1=S,1,-3,1.1,-2,7288,-8,7
O=C(COC(=O)c1cccc(S(=O)(=O)NCc2ccccc2)c1)c1ccc2c(c1)OCCO2,3,0,2.8,1,2570,-10,0
CC(C)Oc1ccc(Br)cc1C(=O)N/N=C/c1c[nH]c2ccccc12,x,x,x,8,3662,-5,x
O=C(Nc1ccc(Cl)c(S(=O)(=O)N2CCCCC2)c1)C1=COCCO1,11,3,6.1,7,x,-13,11
CC1Cc2ccccc2N1C(=O)CSc1nc(-c2ccccc2)cs1 (stereo not drawn),1,3,1.4,-5,2181,-14,21
CCOC1OC(C(=O)N2CCN(Cc3ccccc3)CC2)=CC(c2ccc(Br)cc2)C1CCCO (stereo not drawn),-3,2,-3.5,x,x,x,-5
C=CCn1c(=O)c2ccccc2n2c(SCC(=O)Nc3sc(C)c(CC)c3C(=O)OCC)nnc12,14,3,7.0,-3,2447,-10,-16
CCOC(=O)c1c(NC(=O)COC(=O)c2ccccn2)sc2c1CCC2,10,13,4.0,7,2418,-26,0
COc1ccc(CCNC(=O)COC(=O)C2CC2C)cc1OC (stereo not drawn),8,6,5.2,x,8216,-17,4
Cc1c(OCC(=O)NCCN2CCOCC2)ccc2c(-c3ccccc3)cc(=O)oc12,11,6,6.2,8,4384,1,8
CCC(C)(C)c1ccc(OCC(=O)N(C)C)c(C(C)(C)CC)c1,9,-4,13,2,4732,-16,93*
Cn1c(SCc2ccccc2)nnc1-c1cnccn1,0,7,1.0,-3,14739,-24,-2
CC(C)(C)NC(=O)Cn1c(SCC(=O)Nc2nccs2)nc2ccccc21,-6,1,-0.6,-5,4071,-3,-6
N#Cc1c(N)oc(-c2ccc3c(c2)OCO3)c1-c1ccc2c(c1)OCO2,x,x,x,-1,10389,-3,x
CSc1nc2cc(F)c(F)cc2n1C,9,8,2.2,7,11089,-20,4

# Among those listed so far, these contain an NH in an aromatic ring:
SMILES,Mtb hypoxia inh,Mtb hypoxia inh growth,Sa RN4220 lethal,BJeLR lethal,Autofluor counter,PrP 5UTR inh,ugtP null kill
Cc1cc(=O)c2c(C)ccc(C)c2[nH]1,x,x,x,4,4050,-13,x
Cc1ccc(CN(Cc2cc3cc(C)ccc3[nH]c2=O)C(=O)N2CCOCC2)cc1,-2,-4,3.0,2,9666,-11,6
C=CCn1c(-c2c(C)nc3cc(C)ccn23)n[nH]c1=S,1,-3,1.1,-2,7288,-8,7
CC(C)Oc1ccc(Br)cc1C(=O)N/N=C/c1c[nH]c2ccccc12,x,x,x,8,3662,-5,x

# Additional entries follow:
SMILES,Mtb hypoxia inh,Mtb hypoxia inh growth,Sa RN4220 lethal,BJeLR lethal,Autofluor counter,PrP 5UTR inh,ugtP null kill
CCOC(=O)c1oc2nc(C(C)C)c3c(c2c1N)CC(C)(C)OC3,x,x,5.6,x,4125,-17,2
CCN(CC)C(=O)Oc1ccc2ccccc2c1Br,9,-2,6.4,15,2568,-44,19
O=C(NN=Cc1ccc[nH]1)c1ccccc1OCc1ccccc1Cl,-5,4,4.9,x,x,x,3
CCCCN1CCS(=O)(=O)N(Cc2ccccc2Br)CC(C(=O)OC)C1 (stereo not drawn),6,8,4.2,x,3186,-15,-2
N#CC(=NNc1ccc(Br)cc1)C(=N)N1CCOCC1,-6,6,4.5,x,x,x,11
CCCN(C(=O)CCc1ccc(OC)cc1)c1c(N)n(Cc2ccccc2)c(=O)[nH]c1=O,19,6,2.0,x,4100,-16,0
O=C(NCc1ccc(F)cc1)C1CCCN(c2nc3ccsc3c(=O)s2)C1 (stereo not drawn),-19,17,4.1,-1,4760,-23,-1
COc1ccccc1NC(=O)NC(N)=O,7,9,2.7,-2,21653*,-9,-1
O=C1CC(c2ccccc2)C(c2ccccc2)=NN1 (stereo not drawn),-7,0,1.1,x,3971,8,0
CN(Cc1nc2ccccc2c(=O)[nH]1)C(=O)c1ccc(S(=O)(=O)N2CCCC2)cc1,-1,3,4.9,x,8382,-33,0
CN(C1CCCCC1)S(=O)(=O)c1ccc2c(c1)c(=O)c(C(=O)N1CCc3ccccc3C1)cn2C,5,4,1.1,5,5437,-13,0
C=CCn1c(=N)n(CC(=O)c2ccc(OC)cc2)c2ccccc21,-3,10,0.7,15,4451,-21,5
CCN1C(=O)C2C(c3ccc(C)cc3)N3C(=O)N(c4ccc(OC)cc4)C(=O)[C@@]3(Cc3ccc(Cl)cc3)C2C1=O (stereo partly drawn),0,4,5.5,x,x,x,-8
CSCC(=O)N1CCCC(N2CCN(c3cccc(C(F)(F)F)c3)CC2)C1 (stereo not drawn),13,7,3.9,0,3557,-56,3
Cc1scc(C(=O)O)c1-c1c(C(=O)O)csc1C,18,20,3.0,3,2218,-18,2
O=S(=O)(c1ccc(F)cc1)N1CCN(CC2CC3C=CC2C3)CC1 (stereo not drawn),11,3,0.6,-10,6451,-12,4
O=C1NNC(c2ccccc2)=N/C1=C\c1ccc(Cl)cc1,9,17,6.2,-8,6335,x,-16
CCc1c(C)sc(NC(=O)c2cc(C)no2)c1C#N,-6,-5,15,6,4906,6,10
COc1ccc(Cc2ccc(OC)c(N)c2)cc1N,15,2,3.4,3,6260,3,1
Oc1ccc(O)c(-c2cnns2)c1,x,x,-0.9,-16,2424,-13,18
Cc1ccc(C(=O)Nc2cc3c(cc2Cl)OCCCO3)cc1,6,8,0.3,-9,3401,-83,4
O=C(OCC(=O)c1ccc(Cl)s1)c1ccccn1,1,-11,3.4,5,2599,-18,14
O=C(COC(=O)c1ccc(NS(=O)(=O)c2ccc3c(c2)OCCO3)cc1)NC1CC1,15,12,-2.3,-3,3911,-30,12
O=C(c1ccc(Cn2c(=O)[nH]c3ccccc3c2=O)cc1)N1CCN(c2ccccc2)CC1,-3,-5,-0.4,-10,7087,-4,9
COc1ccccc1C1C(C(C)=O)=C(O)C(=O)N1c1ccc(O)cc1 (stereo not drawn),7,15,2.4,-1,4009,-2,2
O=C(NC(=S)N(CCO)Cc1ccccc1)c1ccc(S(=O)(=O)N2CCCC2)cc1,10,10,-2.5,0,4759,-18,2
COCCCNC(=O)CN1C(=O)/C(=C/c2ccccc2C)Sc2ccccc21,-1,8,0.9,-4,3115,-18,8
O=C(Nc1ccc2c(c1)OCO2)C1(S(=O)(=O)c2ccc(Cl)cc2)CC1,-1,6,2.0,8,24545*,-6,-7
O=C(NCc1ccc(F)cc1)C1CCN(S(=O)(=O)N2CCCC2)CC1,9,8,3.8,0,4619,-31,8
CCCNC(=O)COc1ccccc1[N+](=O)[O-],3,-1,6.4,6,2423,-27,-2
CCCc1nnc(NC(=O)c2ccncc2)s1,-3,4,5.3,-1,7318,-9,-2
COC(=O)CCC(=O)NC(=S)Nc1c(C)cccc1C,2,11,5.5,-6,2048,-21,1
COc1cc(C(C2C(=O)CC(C)(C)CC2=O)C2C(=O)CC(C)(C)CC2=O)ccc1O,4,3,2.6,-6,3766,-3,7
O=C(Nc1nc(-c2ccccn2)cs1)c1cccc(-n2cnnn2)c1,15,15,6.7,18,3503,32,-5
CC(C)(C)NS(=O)(=O)c1ccc(NC(=O)C(Sc2ccccc2)c2ccccc2)cc1 (stereo not drawn),6,0,2.9,0,u,-8,-21
c1ccc(C2NCCn3cccc32)cc1 (stereo not drawn),x,x,0.2,5,3884,-47,3
NC(=O)c1ccsc1NC(=O)COC(=O)c1nc(Cl)ccc1Cl,7,0,6.0,-2,u,-18,0
CN(C)CCCNS(=O)(=O)c1ccc(N2CCN(Cc3ccc4c(c3)OCO4)CC2)c([N+](=O)[O-])c1,2,0,3.5,3,2945,-24,14
C[N+](C)(C)C/C=C1/COCO1,x,x,2.9,4,2136,-8,-1
CC(=O)OC1CSC2c3ccccc3C(=O)N2Cc2sccc21 (stereo not drawn),16,14,2.3,-10,2061,-30,12
O=C(COc1cccc2cccnc12)N/N=C/c1ccccc1O,x,x,x,0,5146,-13,x
COc1ccc(C2OC(=O)CC2C(=O)N2CCN(c3cc(Cl)ccc3C)CC2)cc1OC (stereo not drawn),x,x,x,5,4583,-24,x
COc1ccc(OC)c(NC(=O)Nc2cccnc2)c1,10,4,1.8,x,5576,-8,13
Cc1ccc(CC2CC(=O)N(CCc3ccccc3)C2=O)cc1 (stereo not drawn),-4,2,14,4,3315,-22,5
Cc1ccccc1OCC1CNC(=O)O1 (stereo not drawn),11,10,3.1,-1,2006,-22,-4
Cc1ccc2cc3c(NC(=O)C(C)C)nn(C)c3nc2c1,x,x,-1.4,-4,3617,8,11
CCn1c(SCC(=O)NC2=NCCS2)nnc1C(C)NC(=O)c1ccccc1F (stereo not drawn),-1,-3,7.3,-5,4406,2,7
CC1CC(C)CN(c2ncnc3c2cnn3C)C1 (stereo not drawn),12,6,5.4,-1,3192,-19,15
CC(C)(C)CC(=O)N1CCC(c2nc3c(nnn3Cc3c(F)cccc3Cl)c(=O)[nH]2)CC1,x,x,14,1,3695,4,26
Cn1c(=O)c2c(nc(OC/C=C/c3ccccc3)n2C)n(C)c1=O,4,4,3.4,1,5752,-10,-1
O=S1(=O)NC2CCCCCN2c2ccc(F)cc21 (stereo not drawn),3,3,8.0,0,2900,-13,8
CC(=NNC(=O)c1ccncc1)c1ccc(N2CCOCC2)cc1,x,x,5.1,x,x,x,4
CC(OC(=O)c1oc2ccccc2c1COc1ccccc1)C(=O)NC(N)=O (stereo not drawn),0,6,2.5,1,3325,-16,3
Cc1cccc2cc(C#N)c(NCc3ccccc3)nc12,15,16,0.2,2,4497,-8,4
CCN1C(=Nc2ccc(Cl)cc2)SC/C1=C\C(=O)OC,14,4,4.4,16,9615,-38,-1
O=C(CSc1ccc2nnc(-c3ccc(F)cc3)n2n1)NCc1ccco1,-4,-10,1.7,3,8868,-3,0
O=C(Cn1ccc2ccccc2c1=O)NCCC(=O)Nc1cccnc1,x,x,0.6,-2,2638,-31,0
